Screens from PubChem.
D2 ag: agonists of human D2 dopamine receptor (beta-arrestin); hit rate 0.084% among 360,000; DiscoveRx PathHunter D2 beta-arrestin, luminescence, 90 min; 100% = 57 uM dopamine signal; P14416; activation, % (concentration not given with the values); in the data active = activation above about 40%; inconclusive = about 15% to 40%; inactive = below about 15%; further: compound concentration not given in the record; the text of the record calls up to 30% inactive
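DiscoveRx PathHunter D2 beta-arrestin cells (2,100/well) attached overnight, then compound-stimulated 90 min at 37 C in HBSS/10 mM HEPES/0.1% Tween-20 buffer; beta-galactosidase complementation read by luminescence after 1 h at ambient temperature. Dopamine 57 uM final (EC100) as control.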
CtBP-E1A inh: blocks the CtBP interaction with E1A. AlphaScreen GST-E1A/His-CtBP binding, 1536-well; stronger effect = lower value; control for the full effect not named in the record. activity change, % (no concentration beside the values). hit rate 0.49% among 340,000; in the data active means activity change below about -65%; inconclusive means about -30% to -65%; inactive means above about -30%; further: on the % scale 0 is the no-effect control and ±100 the full control effect; compound concentration not given in the record
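GST-E1A and His-tagged CtBP (125 nM each as 5X stock) were preincubated with pin-transferred compound for 2 h at 37 °C in the dark, then glutathione donor and nickel acceptor beads were added for 1 h before AlphaScreen reading.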
Sfp inh: Sfp phosphopantetheinyl transferase inhibition | Q9F4F7 | Biochemical Sfp PPTase activity, qHTS | Potency, µM, without a hit: max response, negative = inhibition, actives largely listed as inhibitors | hit rate 3.5% among 310,000 | AID 1490; active means well fitted inhibition curve with a large enough effect; inconclusive means small, poorly fitted or top-dose-only effect, or another doubt; inactive means no such curve, though single readings can be large or run the other way;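 further: the enzyme is Sfp with the accession as filed and its product quenches rhodamine fluorescence; potency means the concentration at half of the fitted maximal effect; 0% = enzyme reaction without inhibitor and -100% = no enzyme wells; top concentration of the series not given in the record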
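Fluorescence-quenching assay with 15 nM Sfp, 5 uM rhodamine-CoA and 12.5 uM BHQ-2-labelled ybbR peptide in pH 7.6 Hepes/MgCl2 buffer. Enzyme was pre-incubated with compound for 15 min at room temperature. Rate was taken from the 30-min fluorescence change (525/598 nm).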
Six1-Eya2 blk: inhibitors of human Six1/Eya2 interaction; AID 651725; AlphaScreen GST-Six1/His-Eya2 binding, biochemical; stronger effect = lower value; control for the full effect not named in the record; activity change, % (no concentration beside the values); hit rate 0.56% among 360,000; in the data active = activity change below about -65%; inconclusive = about -30% to -65%; inactive = above about -30%; further: on the % scale 0 is the no-effect control and ±100 the full control effect; compound concentration not given in the record
Target sequence (O00167 whole entry, looked up): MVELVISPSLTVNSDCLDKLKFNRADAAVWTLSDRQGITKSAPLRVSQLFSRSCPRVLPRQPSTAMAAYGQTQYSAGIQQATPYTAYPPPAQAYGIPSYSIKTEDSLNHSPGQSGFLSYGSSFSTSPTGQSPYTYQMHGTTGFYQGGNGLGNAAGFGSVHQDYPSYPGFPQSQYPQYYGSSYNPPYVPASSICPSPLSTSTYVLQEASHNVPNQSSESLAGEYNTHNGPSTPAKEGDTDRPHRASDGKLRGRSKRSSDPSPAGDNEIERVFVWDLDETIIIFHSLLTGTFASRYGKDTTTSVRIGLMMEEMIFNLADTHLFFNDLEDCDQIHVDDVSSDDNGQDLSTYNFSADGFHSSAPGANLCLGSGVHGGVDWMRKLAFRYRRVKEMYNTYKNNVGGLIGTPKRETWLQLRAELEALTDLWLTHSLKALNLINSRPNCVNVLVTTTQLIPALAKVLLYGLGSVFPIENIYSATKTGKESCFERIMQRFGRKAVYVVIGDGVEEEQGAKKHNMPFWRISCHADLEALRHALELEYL
Target sequence (Q15475 whole entry, looked up): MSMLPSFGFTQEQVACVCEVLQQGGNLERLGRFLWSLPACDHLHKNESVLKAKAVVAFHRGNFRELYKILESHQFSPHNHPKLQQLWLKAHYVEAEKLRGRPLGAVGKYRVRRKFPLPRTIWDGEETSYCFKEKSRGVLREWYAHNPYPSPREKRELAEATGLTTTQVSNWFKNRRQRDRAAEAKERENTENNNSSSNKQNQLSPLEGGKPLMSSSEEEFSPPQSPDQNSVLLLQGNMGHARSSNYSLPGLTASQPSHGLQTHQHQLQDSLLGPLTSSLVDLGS
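Compounds are tested against tagged Six1 and Eya2 proteins bridged by glutathione donor and nickel acceptor beads; after a one-hour incubation at 37 °C without light, AlphaScreen emission is recorded.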
TRPV1 PAM: enhances activation of the human vanilloid receptor TRPV1 | TRPV1-expressing cells, Fluo-8 calcium influx, capsaicin EC20 potentiation; host cell line not named in the record; control for the full effect not named in the record | potentiation, % at 8.33 µM | hit rate 0.02% among 320,000 | AID 540277; active means potentiation above 80%; inconclusive means 30% to 80%; inactive means below 30%; further: 0% is about no effect
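Cells expressing TRPV1 were dye-loaded with Fluo-8 and read kinetically: 10 s baseline, 3 min after compound (agonist portion), then 2 min after EC20 capsaicin (allosteric enhancer portion). Calcium-bound dye fluorescence at 480/520 nm.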
D2 potentiator: positive allosteric modulators of human D2 dopamine receptor | potentiation, % (concentration not given with the values) | hit rate 0.23% among 360,000 | P14416 | AID 624464 | DiscoveRx D2 beta-arrestin cells, luminescence, 90 min; 100% = 57 uM dopamine signal; active = potentiation of 50% or more; inconclusive = 30% to 50%; inactive = 30% or less;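 further: compound concentration not given in the record; tested on top of an EC20 dose of dopamine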
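D2 cells co-treated with compound plus 50 nM dopamine (EC20) for 90 min at 37 deg C to detect potentiation. Beta-arrestin recruitment was read as enzyme-fragment luminescence after 1 h at ambient temperature. Full response was set by 57 uM dopamine.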
PINK1 expr mod: changes PINK1 expression; PINK1 immunofluorescence, high-content cytometry, 24 h; Potency, µM (titrated, usually from 76.6 µM), for the others: top-dose activation (PINK1 increase), most hits filed as activators; hit rate 0.2% among 410,000; active = well fitted activation curve with a large enough effect; inconclusive = small, poorly fitted or top-dose-only effect; inactive = flat fitted curve, though single readings scatter; cell line not stated here;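 further: potency means the concentration at half of the fitted maximal effect; % of control where 0% means no effect; nearly all actives have a fitted effect of over 65% in size; a mitochondrial uncoupler was the plate control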
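Fluorescence from anti-PINK1 antibody, together with nuclear and cell stains, was scanned on a laser-scanning cytometer. Before staining, stable-line cells were incubated 24 hours with compounds at 5 concentrations; primary antibody 12 h at 10 degrees C.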
The depositor's hits bear a star; u = inconclusive; x = no result given; & = joins results of further samples; [ ] = dose if it differs, or a comment.

SMILES	D2 ag	CtBP-E1A inh	Sfp inh	Six1-Eya2 blk	TRPV1 PAM	D2 potentiator	PINK1 expr mod
COc1ccc(NC(=O)COC(=O)Cc2c[nH]c3ccccc23)cc1Cl	0.1	-12	x	-4	x	-4	3.5%
Cc1ccc(S(=O)(=O)NCC(=O)OCC(=O)c2ccc(S(=O)(=O)N3CCCCC3)cc2)cc1C	-22	0	x	0	x	-22	0.2%
Nc1ccccc1N1C(=O)c2cccc3cccc(c23)C1=O	7.1	x	x	0	x	1	-1.8%
Cc1ccc(NC(=O)C(OC(=O)c2cnc(C)cn2)c2ccccc2)c([N+](=O)[O-])c1 (centres undefined)	11	0	8%	17	-14	28	0.7%
Cc1cc(C(=O)NNC(=O)CN2C(=O)NC(C)(c3ccccc3)C2=O)c(C)o1 (centres undefined)	-1.0	-3	x	-9	-7	-7	-0.3%
O=c1[nH]c(NNC(=S)NC2CCCCC2)nc2c1C1(CCCC1)Cc1ccccc1-2	-0.6	0	79µM*	4	u	-2	2.0%
COc1ccc(/C=C2\CCc3c2nc2ccccc2c3C(=O)O)cc1OC	-2.8	x	-13%	u	2	-13	1.5%
COc1ccc(-n2c(SCC(=O)NCC3CCCO3)nc3c(c2=O)SCC3)cc1 (centres undefined)	-2.2	3	-7%	0	2	-9	-0.7%
CSCC[C@H](NC(=O)Nc1ccccc1C)C(=O)O	0.0	8	15%	4	8	-3	0.1%
COc1cc(OC)c(C2C(C(=O)Nc3ccc(C)cc3C)=C(C)Nc3ncnn32)cc1OC (centres undefined)	1.2	8	7%	4	-10	-1	-1.4%
Cc1ccc(CNC(=O)Cn2c(=O)oc3ccccc32)o1	0.2	-3	-30%	0	-1	10	0.5%
CCCCCn1nc(C(=O)OCC(=O)c2c(N)n(C)c(=O)n(C)c2=O)c2ccccc2c1=O	7.2	-12	3%	-12	-2	6	2.5%

Continued, overlapping the part above by 2 compounds.
SMILES	D2 ag	CtBP-E1A inh	Sfp inh	Six1-Eya2 blk	TRPV1 PAM	D2 potentiator	PINK1 expr mod
Cc1ccc(CNC(=O)Cn2c(=O)oc3ccccc32)o1	0.2	-3	-30%	0	-1	10	0.5%
CCCCCn1nc(C(=O)OCC(=O)c2c(N)n(C)c(=O)n(C)c2=O)c2ccccc2c1=O	7.2	-12	3%	-12	-2	6	2.5%
CC(C)(C)NC(=O)C(c1cccs1)N(C(=O)c1csnn1)c1cccc(F)c1 (centres undefined)	-0.2	12	9%	-6	-3	-9	0.5%
CCc1cc(C(=O)N2CCN(S(=O)(=O)c3cc(C)ccc3C)CC2)sc1C	1.1	8	x	-4	-13	2	0.4%
Clc1ncc(CN2CCN(c3ccccc3)CC2)s1	48*	-7	-2%	-8	-1	9	2.0%
COc1ccc(C(=O)NCc2nnc(SCC(=O)Nc3ccccc3F)o2)cc1	0.7	0	12%	15	17	3	3.5%
O=[N+]([O-])c1cc(-c2ccc(/C=N\n3cnnc3)o2)cc([N+](=O)[O-])c1	4.4	-4	u	-20	2	16	0.6%
CCCCN(C)C(=O)c1cn(CC)c2ccc(S(=O)(=O)N(C)C)cc2c1=O	-1.1	2	19%	3	-6	-2	-0.5%
COCC(=O)Nc1ccc(S(=O)(=O)N2CCCC2)cc1	-4.5	-13	3%	2	13	-8	-1.0%
COC1=C(Br)C(=O)c2ncccc2C1=O	8.0	u	x	u	x	4	-0.7%
O=C(NNC(=O)c1ccc(Br)o1)c1csc(N2CCOCC2)n1	-1.2	-1	x	-5	-2	-2	1.5%
COc1ccc(S(=O)(=O)Nc2c(C)ccc3nsnc23)cc1OC	-0.6	-5	13%	5	8	-3	-2.5%
C/C(=N\Nc1ccc(Cl)c(C(=O)O)c1)c1ccc(N2CCOCC2)cc1	-0.6	-9	-3%	-8	u	7	0.2%
Nc1nccnc1C(=O)OCc1nc2sc3c(c2c(=O)[nH]1)CCCC3	0.1	-8	x	-27	1	-10	-1.9%
Cc1cc(C)n2nc(C(=O)Nc3ccc4c(c3)OCO4)nc2n1	-0.3	-18	-27%	-14	0	-20	3.9%
COc1ccc(OCC(=O)NNC(=O)C(=O)Nc2ccc(C)cc2)cc1	0.4	-2	-11%	0	25	2	3.7%
Cc1ccc2occ(C(c3nnnn3C3CCCC3)N3CCN(C(=O)c4ccco4)CC3)c(=O)c2c1 (centres undefined)	-1.0	-22	-11%	-21	-2	-6	2.7%[38.3 µM]
Cc1ccc(NC(=O)CN(C)C(=O)COc2cccc3cccnc23)cc1	2.8	u	1%	u	13	-9	9.6%
CC(=O)c1ccc(OCC(=O)N2CCCC(Nc3ccc(C)c(C)c3)C2)cc1 (centres undefined)	-2.8	-1	15%	-9	-13	11	1.8%
CCOc1cc(C(=O)NC(=S)Nn2cnnc2)cc(OCC)c1OCC	-12	9	-60%	3	-5	-12	1.7%
O=C(/C=C/c1cc(Br)ccc1F)OCC(=O)N1CCOCC1	-0.8	-81*	x	-24	x	0	-0.8%
COc1cc(C(=O)OC(C)CN2C(C)CCCC2C)cc(OC)c1OC (centres undefined)	-1.3	-2	9%	3	9	-7	-0.9%
Cc1cccc(C(=O)OCc2cnc(Cl)s2)c1	-2.3	34	3%	30	-20	0	0.9%
CCOC(=O)C1CCCN(c2nc3ccccc3nc2C(C#N)C(=O)OC(C)COC)C1 (centres undefined)	-3.4	3	-19%	1	-13	-15	6.7%
COc1ccc(C)cc1S(=O)(=O)Nc1ccncc1	-1.5	0	10%	0	0	6	-0.3%
CCCCCC1=C(C(=O)OC)C(C(=O)OCC)N(S(=O)(=O)C(F)(F)F)c2ccccc21 (centres undefined)	-1.2	17	4%	11	x	1	3.4%
O=C(CSc1nc2ncc(Cl)cc2[nH]1)c1ccc2c(c1)OCO2	1.4	0	10%	1	3	-10	12%
CCOc1ccc(/C=C\C(C)=N\O)cc1	0.4	-6	11%	0	4	21	x
CC(C)Nc1nc(NC(C)C)nc(Nn2cnnc2)n1	-4.6	2	22%	7	-2	-4	4.0%
CC(C)C(NC(=O)c1ccc(Cl)cc1Cl)C(=O)N1CCC1 (centres undefined)	-6.6	1	x	7	x	-11	-1.5%
Cc1[nH]n(-c2ccccc2)c(=O)c1CCO	1.9	-16	15%	15	-1	4	0.6%
Cc1cc(NS(=O)(=O)c2ccc(NC(=O)COc3ccc(C#N)cc3)cc2)nc(C)n1	-9.3	0	x	-18	x	-16	-0.8%
Cc1cc(OC(F)F)ccc1NC(=S)NC1CCCC1	0.6	6	19%	0	-21	-4	3.0%
NS(=O)(=O)c1ccc(CCNC(=O)CN2C(=O)c3ccccc3S2(=O)=O)cc1	0.0	11	x	3	-5	-7	-0.8%
OC(c1ccccc1)c1nc(-c2cc3ccccc3o2)cs1 (centres undefined)	7.8	-3	x	13	x	-6	3.6%
CCOCCCNC(=O)c1c[nH]c2cc(OC)ccc2c1=O	-0.1	-1	24%	0	4	-2	0.8%
C=C(C)[C@@H]1CC[C@]2(C(=O)O)CC[C@]3(C)C(CCC4[C@@]5(C)CC[C@H](O)C(C)(C)C5CC[C@]43C)C12 (some centres undefined)	-2.0	5	11%	0	7	-19	7.0%
Cc1nnc(N(C)C(=O)c2cccnc2)s1	3.2	-3	11%	-1	-12	-6	-0.3%
O=C(CCN1C(=O)/C(=C/c2ccc(F)cc2)SC1=S)NC1CCS(=O)(=O)C1 (centres undefined)	2.7	-11	-12%	-3	8	-1	0.1%
Cc1ccc(C)c(NC(=O)CN(C)C(=O)Cn2c(=O)oc3ccccc32)c1	-2.6	0	x	4	12	-16	-1.7%
CCc1cccc(CC)c1N(COC)C(=O)Cn1ccccc1=N	-1.6	6	7%	2	-7	12	2.1%
COc1ccc(NC(=O)c2sc3nc(-c4cccnc4)ccc3c2N)cc1OC	4.4	0	-9%	-11	-10	-10	1.8%
O=C(Nc1ccc2nc3n(c(=O)c2c1)CCCC3)c1cccc(F)c1	3.4	u	23%	-24	5	0	1.7%
Cn1c(=O)oc2cc(S(=O)(=O)N3CCCC(C(=O)Nc4ccccn4)C3)ccc21 (centres undefined)	-2.1	-3	14%	1	-4	-7	1.0%
COc1ccc(NC(=O)CN(C)S(=O)(=O)c2ccc3c(c2)n(C)c(=O)c(=O)n3C)cc1	-2.4	5	10%	4	-15	-7	13%
COc1ccc(-c2onc(C)c2-c2cnn(-c3ccccc3)c2)c(O)c1C	-3.0	0	-5%	-5	2	1	11%
Cc1ccnc(SCC(=O)N2CCCc3ccccc32)n1	0.3	3	5%	3	-5	-9	0.0%
CCCCCCCCCCCCS(=O)(=O)CCC(=O)O	0.0	10	17%	7	-8	-1	-0.2%
O=C(CN(Cc1ccco1)C(=O)CNS(=O)(=O)c1ccc(F)cc1)NCc1ccc(F)cc1	-1.5	-2	0%	6	2	5	-3.6%
CCCCOc1ccc(C(=O)NCC(=O)NCC(c2cccs2)N2CCOCC2)cc1 (centres undefined)	-0.3	-29	x	-2	2	-2	-0.4%
CCCOc1ccc(/C=N/Nc2ccccc2[N+](=O)[O-])c(OCCC)c1	-4.5	u	-1%	u	16	-1	5.3%
O=C(c1ccc2ccccc2c1)N1CCN(c2ccc([N+](=O)[O-])c(N3CCOCC3)c2)CC1	0.4	-12	0%	-24	14	-14	-5.7%[38.3 µM]
O=C(O)CCc1nc2ccccc2c(=O)[nH]1	-1.5	5	11%	16	x	-5	0.6%
CCOc1ccc(NS(=O)(=O)c2ccc(C(=O)NNC(=O)c3ccccc3O)cc2)cc1	-1.8	u	x	u	-1	-8	-1.3%
Cc1[nH]n(C(N)=S)c(=O)c1N=Nc1cccc(Cl)c1	-12	3	6%	-9	-8	-15	0.5%
Cc1cccc(N=C2NC(=O)/C(=C/c3cccnc3)S2)c1C	-2.6	x	u	3	3	-3	1.0%
Cc1cc(C)cc(NC(=O)[C@H](NC(=O)[C@@H]2Cc3ccccc3CN2)c2ccccc2)c1	-2.6	-4	u	-11	21	-21	u
Cc1ccc(-c2nc(NC(=O)CSc3ccc4ccccc4n3)ns2)cc1	-1.7	7	7%	3	29	0	-1.1%&10%
CC(C)c1ccccc1NC(=S)N1CCN(S(=O)(=O)c2cccs2)CC1	2.3	6	19%	3	-1	-7	-1.0%
